VACV mCherry inh = vaccinia inhibition (mCherry reporter); Vaccinia virus mCherry reporter infection, fluorescence; about a quarter of the inactives have no number; Potency, µM (highest dose often 36.5 µM), inactives show at the top dose activity change, negative = inhibition, most hits filed as inhibitors; hit rate 0.63% among 310,000; active = well fitted inhibition curve with a large enough effect; inconclusive = small, poorly fitted or top-dose-only effect; inactive = no such curve, though single readings can be large or run the other way; tested in A549 cells; note: nearly all actives have a fitted effect of over 35% in size; inactives centre near -10
VACV Venus inh = inhibitors of vaccinia virus (Venus reporter). Vaccinia virus Venus reporter expression, fluorescence. Potency, µM (doses to about 36.5 µM), for inactives: at the highest dose activity change, negative = inhibition, most hits filed as inhibitors. hit rate 0.46% among 330,000. AID 720580; active means well fitted inhibition curve with a large enough effect; inconclusive means small, poorly fitted or top-dose-only effect; inactive means no such curve, though single readings can be large or run the other way; tested in A549 cells; note: nearly all actives have a fitted effect of over 30% in size; inactives centre near -10
The depositor's hits bear a star; i = inactive; ? = inconclusive; nt = no result given; & = joins results of further samples; [ ] = remark or other dose. % is set by controls: 0 for no effect and ±100 for the full control effect; potency is the fitted concentration of half-maximal effect.

The opening 14 compounds as a preview:
Order of results – VACV mCherry inh	VACV Venus inh
- O=C(NCCN1CCC(n2c(=O)[nH]c3ccccc32)CC1)c1ccncc1
    -7%	-4%
- O=C(CSCc1ccc([N+](=O)[O-])cc1)NN=C1CCCCCC1
    i	-3%
- O=C(NCCc1ccc(Cl)cc1)c1ccc(CS(=O)Cc2ccccc2Cl)o1 (configuration not stated)
    -15%	-8%
- COC(=O)CC1C(=O)NCCN1C(=S)Nc1ccccc1Cl (configuration not stated)
    -17%	-8%
- Cc1oc2c(c(C)cc3oc(=O)c(CC(=O)N[C@@H](CC(C)C)C(=O)O)c(C)c32)c1C
    -11%	-13%
- CC(C)CC(NC(=O)C(CO)NC(=O)C1CCC(=O)N1)C(N)=O (configuration not stated)
    i	8%
- Cc1c(Cl)cccc1NC(=O)CSc1nc(=O)n(CCN2CCOCC2)c2c1CCC2
    -16%[7.34 µM]	-13%[7.34 µM]
- CCOC(=O)c1cc(-c2ccc(F)cc2)n(CC(=O)NC2CCCCCC2)c1C
    ?	-28%
- Cc1ccc(S(=O)(=O)N2CCOCC2)cc1C(=O)NCc1cn2ccsc2n1
    nt	-12%
- CCOc1ccccc1NC(=O)NCc1ccc2c(c1)OCO2
    -13%	-10%
- O=C(NCCNC(=O)c1cnccn1)c1ccc(Cl)c(Cl)c1
    i	-23%
- CN(C)c1nc(C(=O)O)nc(N2CCOCC2)n1
    1%	-6%
- c1ccc2c(c1)CN(Cc1ccc3c(c1)OCO3)Cc1cnnn1-2
    -20%	?
- CCOc1cc(C(C(=O)NCC2CCCO2)N(C(=O)Cn2nnc3ccccc32)c2ccc(NC(C)=O)cc2)ccc1O (configuration not stated)
    -3%	-6%

Results (from the top)
Order of results – VACV mCherry inh	VACV Venus inh
- O=C(NCCN1CCC(n2c(=O)[nH]c3ccccc32)CC1)c1ccncc1
    -7%	-4%
- O=C(CSCc1ccc([N+](=O)[O-])cc1)NN=C1CCCCCC1
    i	-3%
- O=C(NCCc1ccc(Cl)cc1)c1ccc(CS(=O)Cc2ccccc2Cl)o1 (configuration not stated)
    -15%	-8%
- COC(=O)CC1C(=O)NCCN1C(=S)Nc1ccccc1Cl (configuration not stated)
    -17%	-8%
- Cc1oc2c(c(C)cc3oc(=O)c(CC(=O)N[C@@H](CC(C)C)C(=O)O)c(C)c32)c1C
    -11%	-13%
- CC(C)CC(NC(=O)C(CO)NC(=O)C1CCC(=O)N1)C(N)=O (configuration not stated)
    i	8%
- Cc1c(Cl)cccc1NC(=O)CSc1nc(=O)n(CCN2CCOCC2)c2c1CCC2
    -16%[7.34 µM]	-13%[7.34 µM]
- CCOC(=O)c1cc(-c2ccc(F)cc2)n(CC(=O)NC2CCCCCC2)c1C
    ?	-28%
- Cc1ccc(S(=O)(=O)N2CCOCC2)cc1C(=O)NCc1cn2ccsc2n1
    nt	-12%
- CCOc1ccccc1NC(=O)NCc1ccc2c(c1)OCO2
    -13%	-10%
- O=C(NCCNC(=O)c1cnccn1)c1ccc(Cl)c(Cl)c1
    i	-23%
- CN(C)c1nc(C(=O)O)nc(N2CCOCC2)n1
    1%	-6%
- c1ccc2c(c1)CN(Cc1ccc3c(c1)OCO3)Cc1cnnn1-2
    -20%	?
- CCOc1cc(C(C(=O)NCC2CCCO2)N(C(=O)Cn2nnc3ccccc32)c2ccc(NC(C)=O)cc2)ccc1O (configuration not stated)
    -3%	-6%
- O=C(Nc1cccnc1)/C(N=Nc1ccc(Cl)c(C(F)(F)F)c1)=C(\O)c1ccccc1
    -16%	-13%
- CC(C)C[C@H](NC(=O)OC(C)(C)C)c1n[nH]c(=S)n1N
    -12%	-3%
- CN(C(=O)c1ccc(NC(=O)Cc2ccc(NC(=O)C3CCN(C(=O)C4CCCCC4)CC3)cc2)cc1)C1CC1
    i	-17%
- CCOc1ccccc1NC(=O)CN(c1nccs1)S(=O)(=O)c1ccc(N)cc1
    i	-20%
- O=C(CCc1nnc(C2CCCCC2)o1)N1CCN(Cc2ccccc2)CC1
    -8%	-12%
- COc1ccc(CC2=C(O)c3ccccc3C(=O)C2=O)cc1
    ?	-2%
- CCOC(=O)c1ccc(NC(=O)c2oc3ccc4c(c3c2C)C(=O)CC(C)(CC)O4)cc1 (configuration not stated)
    -6%	-5%
- CC(NCc1ccco1)C(=O)N1CCc2ccccc2C1 (configuration not stated)
    -19%	-8%
- CCn1c(SCC(=O)NCc2ccco2)nc2c(c1=O)SC(C)C2 (configuration not stated)
    nt	-28%
- CCC(C)/C=C/C1=CC2=C(Cl)C(=O)C3(C)OC(=O)C(C(=O)C(C)C(C)O)C3C2=CO1 (configuration not stated)
    -3%	-4%
- CCOC(=O)c1sc2nccc(N(C)C)c2c1N=CNOCc1c(F)cccc1Cl
    nt	-7%
- COc1cc(NC(=S)NCc2cccs2)cc(OC)c1
    0%	-10%
- COc1c(F)c(F)c(C(=O)Nc2ccc3oc(-c4ccncc4)nc3c2)c(F)c1F
    nt	-5%
- Cc1cc(-c2ccc(S(=O)(=O)Nc3ccc(Cl)cc3)cc2)on1
    -5%	-27%
- CC(=O)NCCOC(=O)Nc1cccnc1
    i	-6%
- COc1cccc(CNC(=O)c2c(O)nc3ccccn3c2=O)c1
    -2%	-5%
- Cc1cc2c(cc3c(SCc4cccc(F)c4)nnc(C)n32)o1
    -19%	-18%
- O=[N+]([O-])c1ccccc1/C=C/C=N/n1c(-c2cc(-c3ccccc3)n[nH]2)n[nH]c1=S
    -26%	-15%
- NS(=O)(=O)c1ccc(NC(=O)/C=C/c2ccc3c(c2)OCO3)cc1
    i	-9%
- O=C(NNC(=S)NC(=O)c1cccc([N+](=O)[O-])c1)c1ccc(Br)cc1
    -14%	-25%
- CCCc1cc(=O)[nH]c(SCc2cc(Cl)ccc2OC(F)F)n1
    i	-9%
- CCOc1ccccc1NC(=O)N1CCCC1C(=O)NCc1ccco1 (configuration not stated)
    i	-15%
- COc1cccc(/C=C/C(=O)Nc2ccc(C(=O)Nc3cccc(S(N)(=O)=O)c3)cc2)c1OC
    0%	4%
- O=C(CSc1nncs1)Nc1nnc(-c2ccccc2)o1
    -14%	-19%
- CC(CN1CCOCC1)OC(=O)C(c1ccccc1)c1ccccc1 (configuration not stated)
    -15%	-10%
- Cc1ccc(OCCn2c(CNc3cccc(C)c3)nc3ccccc32)cc1
    -4%	-22%
- COc1cc2cc(C)c(SCC(=O)N3CCOCC3)nc2cc1OC
    -25%	-13%
- CC(C)Oc1cc(NC(=O)CS(=O)CC(=O)Nc2cccc(C(F)(F)F)c2)c(Cl)cc1Cl (configuration not stated)
    ?	?
- Nc1nc(SCc2ccc3c(c2)OCCO3)n[nH]1
    -14%	-8%
- COc1ccccc1CCNC(=O)C(=O)NCC1OCCN1S(=O)(=O)c1ccc(Br)cc1 (configuration not stated)
    -8%	-1%
- CC(C)N1CCC(N2CCN(CC#Cc3ccccc3)CC2CCO)CC1 (configuration not stated)
    3%	-6%
- COc1ccccc1CN(C)C(=O)c1ccc(COc2ccccc2)cc1
    -19%	-11%
- CC(C)c1ccc2[nH]c(O)c(N=NC(=O)c3ccc(CSc4nncn4C)cc3)c2c1
    ?	?
- O=C(Cc1cccs1)Nc1cccc(-c2nc3ccccc3[nH]2)c1
    -4%	-16%
- Cc1ccccc1-c1noc(CCC(=O)NCC2CCCO2)n1 (configuration not stated)
    i	-16%
- CC1(c2ccccc2)NC(=O)N(CC(=O)Nc2nc(-c3ccccn3)cs2)C1=O (configuration not stated)
    ?	?
- CC1=Nc2cc(C(=O)N3CCC(C)CC3)ccc2Sc2ccc(Cl)cc21
    -26%	-19%
- O=S(=O)(NCC(c1ccco1)N1CCN(c2ccccc2)CC1)c1cc(F)ccc1F (configuration not stated)
    -10%	-17%
- Cc1cccc(N2CC(C(=O)O)CC2=O)c1C (configuration not stated)
    -7%	-7%
- O=C(NCc1ccccc1)c1cccc(NS(=O)(=O)c2cccc3cccnc23)c1
    -18%	-12%
- O=C(CSc1ncnc2ccccc12)NCCc1ccccc1
    -6%	-10%
- Cc1ccc2c(c1)N(S(=O)(=O)c1ccc(CN3C(=O)c4cccnc4C3=O)s1)CCO2
    -29%	-7%
- CC(NC(=O)c1ccc(Cn2c(SCc3ccccc3)nc3cccnc32)cc1)c1ccccc1 (configuration not stated)
    -13%	-5%
- CCOc1ccc(CN(C)c2ccc(S(=O)(=O)N3CCN(C)CC3)cc2[N+](=O)[O-])cc1OC
    ?	-22%
- O=C(c1ccco1)N1CCN(C(c2ccccc2)c2nnnn2Cc2cccs2)CC1 (configuration not stated)
    i	-14%
- COc1ccccc1-c1noc(-c2ccc(NCc3cccnc3)c([N+](=O)[O-])c2)n1
    -10%	-16%

Going on with the list.
Order of results – VACV mCherry inh	VACV Venus inh
- Cc1cccc(NC(=O)c2ncn3c2C(=O)N[C@H](C)C3)c1
    -27%	-25%
- COC(=O)C1=CN(c2c(C)cc(C)cc2C)C(N)=C(C#N)C1c1cccc(F)c1 (configuration not stated)
    ?	-26%
- C[C@@H]1CNC(=O)c2c(C(=O)Nc3ccc(CNC(=O)OC(C)(C)C)cc3)ncn21
    ?	?
- O=C(O)C1C2CCC(C2)C1C(=O)Nc1cccc([N+](=O)[O-])c1 (configuration not stated)
    0%	-12%
- Cc1c(Cl)cccc1NCC(=O)NN=C1CCCC1
    -17%	-7%
- COCCNC(=O)CCSc1nc(-c2ccc3c(c2)OCO3)cc(C(F)(F)F)n1
    -11%	-9%
- CCC(c1nnnn1-c1c(C)cccc1C)N1CCCN(Cc2ccc(F)cc2)CC1 (configuration not stated)
    -3%	-8%
- O=C(O)c1cccc(NC(=O)c2cccc(S(=O)(=O)N3CCCCC3)c2)c1
    -12%	-11%
- Cc1cc(C(F)(F)F)n2nc(-c3sccc3-n3cccc3)cc2n1
    i	-4%
- O=C(Nc1nc(-c2ccccc2)cs1)c1ccc(=O)[nH]c1
    -6%	8%
- CCN(CC)S(=O)(=O)c1ccc(C(=O)Nc2cc(C)cc(C)c2)cc1
    -24%	-17%
- COCCCn1c(=O)/c(=C\c2ccccc2OC(F)F)s/c1=C(/C#N)C(N)=O
    i	-13%
- CC(=O)C1=C(C)NC(=O)CC1c1ccc(Br)cc1 (configuration not stated)
    -5%	-11%
- O=C(COC(=O)c1cccc2c1C(=O)c1ccccc1C2=O)NC1CCCCC1
    -28%	?
- OCC[C@@H]1C[C@H](O)[C@@H](O)[C@@]2(OCCc3ccccc32)O1
    i	-14%
- OCCOCCN1CCN(C2=Nc3ccccc3Sc3ccccc32)CC1
    -8%&-10%	-25%&-14%&-12%
- COc1ccc(OC)c(NC(=O)CCCSc2ccccc2)c1
    -3%	-14%
- COc1cc(SC)ccc1C(=O)Nc1ccc2c(c1)OCCO2
    -26%	-14%
- Cc1cccc(-n2cc(-c3ccccc3)c3c(=O)[nH]cnc32)c1
    ?	?
- COc1ccc(CCN(C)Cc2c(O)ccc3ccccc23)cc1OC
    ?	-11%
- Cc1ccc(N2CC(NC(=O)c3ccccc3C(F)(F)F)CC2=O)cc1C (configuration not stated)
    -12%[7.34 µM]	-11%[7.34 µM]
- N#C/C(=C/c1ccc(N2CCCCC2)o1)C(=O)NCCc1c[nH]c2ccccc12
    -26%	?
- COc1ccc(NC(=O)c2ccc3nc[nH]c3c2)c(OC)c1
    -4%	13%
- OCCN1CCN(CCOc2cccc(Cl)c2)CC1
    -10%	-6%
- COc1ccc2c(c1)SC(C)CC2=O (configuration not stated)
    nt	-12%
- CCCOCc1cc(CN2CCN(c3cccc(Cl)c3)CC2)c(O)c2ncccc12
    2.8µM*	-23%[7.34 µM]
- CN1CCN(NC(=O)c2cc(Br)ccc2Cl)CC1
    i	-11%
- Cc1cc(C)nc(SCC(=O)Nn2cnnc2)n1
    -13%	-5%
- COc1ccc(/C=C/C(=O)c2cccc(-n3cnnn3)c2)cc1O
    -15%	-11%
- CCOC(=O)c1cc(OC(=O)c2ccccc2Cl)n(-c2ccccc2)n1
    -24%[7.34 µM]	-11%[7.34 µM]
- COc1ccc(NS(=O)(=O)c2ccc(F)c(Cl)c2)cn1
    -13%	-1%
- Cc1noc(C)c1CSCC(=O)Nc1cc(Cl)ccc1N1CCOCC1
    -1%	-13%
- C/C(=N\NC(=O)c1ccn(C)n1)c1ccco1
    0%	-4%
- COc1ccc(-n2ccnc(NCc3ccccc3OC)c2=O)cc1
    i	-10%
- O=C(Nc1nncs1)c1cc(-c2ccco2)nc2ccccc12
    -9%	2%
- Nc1ccccc1C(=O)OCCOc1ccccc1
    nt	-21%
- CCC(=O)N1c2ccc(S(=O)(=O)CCC(=O)N3CCN(c4ccccc4)CC3)cc2CC1C (configuration not stated)
    -8%	-3%
- O=C(CSc1ccccn1)Nc1cccc2ccccc12
    -14%	-5%
- C=CCCC(=O)Nc1nc(C)c(-c2csc(Nc3cc(OC)ccc3OC)n2)s1
    ?	?
- CCc1cccc2c(C(=O)COC(=O)c3cnc(C)cn3)c[nH]c12
    -25%	-16%
- COc1cc(C2c3cc4c(c(O)c3CC3COC(=O)C32)OCO4)cc(OC)c1OC (configuration not stated)
    ?	?
- COc1cccc(NC(=O)Nc2nc(SC)ns2)c1
    ?	-15%
- CCCc1nc(-c2ccccc2O)n(-c2ccccc2)n1
    -7%	-15%
- COc1cc2c(cc1OC)C(C(=O)O)C(c1ccc(C)o1)N(C)C2=O (configuration not stated)
    ?	-10%
- Cc1nn(-c2ccccc2)c(Cl)c1/C=N/NC(=O)c1ccccc1F
    -27%	-13%
- O=C(COc1ccccc1)OC(C(=O)c1ccccc1)c1ccccc1 (configuration not stated)
    -13%	0%

Bioassay records as filed in PubChem BioAssay.
